High-throughput results from PubChem.
KCNQ2 pot: potentiators of rat KCNQ2 potassium channel. actives 0.54% (n = 310,000). B-score at 10 µM. AID 2239, 2010. CHO-K1 KCNQ2, FluxOR thallium flux fluorescence; hits give high values;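 active = fluorescence ratio B-score at least 3 SD of library B-scores, with initial fluorescence B-score within 3 SD, cut at about 5.3 in these data; same plate scores as AID 2156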;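 also: B-score of peak minus minimum over baseline fluorescence ratio after K+ and Tl+ stimulus; positive B-score means potentiation of KCNQ2 with more thallium influx and brighter signal; only the inactives scoring about 0 or higher are listed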
Target sequence (O88943 whole entry, looked up): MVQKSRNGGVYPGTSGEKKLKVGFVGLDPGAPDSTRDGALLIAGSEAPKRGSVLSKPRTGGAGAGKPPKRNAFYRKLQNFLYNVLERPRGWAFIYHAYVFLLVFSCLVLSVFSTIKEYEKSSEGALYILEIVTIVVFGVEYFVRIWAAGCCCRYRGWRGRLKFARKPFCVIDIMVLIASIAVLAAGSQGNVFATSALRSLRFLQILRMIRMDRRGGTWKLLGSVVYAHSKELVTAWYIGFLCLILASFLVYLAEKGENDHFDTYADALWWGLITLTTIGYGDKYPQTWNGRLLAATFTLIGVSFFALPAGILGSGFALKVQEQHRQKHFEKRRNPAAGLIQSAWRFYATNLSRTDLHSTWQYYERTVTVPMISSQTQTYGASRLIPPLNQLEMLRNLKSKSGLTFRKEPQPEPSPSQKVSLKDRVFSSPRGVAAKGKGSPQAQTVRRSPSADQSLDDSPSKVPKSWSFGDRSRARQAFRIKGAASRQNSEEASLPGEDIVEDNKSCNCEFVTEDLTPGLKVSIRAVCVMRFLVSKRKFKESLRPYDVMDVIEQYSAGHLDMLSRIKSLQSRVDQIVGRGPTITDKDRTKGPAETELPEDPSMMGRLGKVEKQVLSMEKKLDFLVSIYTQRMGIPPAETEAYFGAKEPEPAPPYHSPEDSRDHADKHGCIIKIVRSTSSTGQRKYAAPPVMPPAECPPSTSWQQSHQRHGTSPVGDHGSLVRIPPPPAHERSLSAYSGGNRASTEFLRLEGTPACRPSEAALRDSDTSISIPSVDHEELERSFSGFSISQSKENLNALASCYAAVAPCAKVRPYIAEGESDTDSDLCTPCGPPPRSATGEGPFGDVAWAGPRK
KCNQ2 pot baseline: further read-out of KCNQ2 pot, marked with its call; B-score; compound at 10 µM; measured here: initial fluorescence intensity artifact check;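 brightness before thallium and not channel activity; 0 = typical well and far values either way flag optical interference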
* hit, by the source's call; . = no result given.

Compound	KCNQ2 pot	KCNQ2 pot baseline
Cc1ccccc1S(=O)(=O)Cc1ccc(C(=O)NC(C)c2ccc3c(c2)OCCO3)o1 (stereo not given)	0.03	-1.8
CCOc1cc(C(=O)Nc2ccc3c4c(cccc24)C(=O)N3CC)cc(OCC)c1OCC	0.42	1
CCOC(=O)C(NC(=O)CC)(Nc1ccc(S(=O)(=O)Nc2onc(C)c2C)cc1)C(F)(F)F (stereo not given)	0.55	1.7
COc1cccc(-c2c(NC(=O)c3ccco3)n(-c3ccc(C)cc3)nc(C)c2=O)c1	0.01	0.75
CC(Sc1nnc(NC(=O)c2cc3ccccc3oc2=O)s1)c1ccccc1 (stereo not given)	0.93	-0.02
COc1cc(/C=N/NC(=O)Nc2ccccc2)ccc1OCCOc1ccccc1C	0.77	-0.41
COc1cccc(/C=N/NC(=O)c2cc(-c3cccn3C)n[nH]2)c1O	1.7	-1.6
COc1ccc(CNC(=O)CCNS(=O)(=O)c2ccc(Cl)cc2)cc1	0.02	-1
CN1CCc2c(sc3c2C(=O)NC(c2ccc4c(c2)OCO4)N3)C1 (stereo not given)	1.1	1.8
N=C1C(=O)OCC1c1ccccc1NC(=O)Nc1ccccc1 (stereo not given)	1.2	-0.33
O=C(Nc1ccc(S(=O)(=O)Nc2ccccc2)cc1)C1CC1	1.1	0.52
O=C(O)CC1C(=O)NCCN1Cc1ccc(F)c(F)c1 (stereo not given)	1.4	4.1
Cc1cc(C)n(CC(=O)N2N=C(C(F)F)CC2(O)C(F)F)n1 (stereo not given)	1.6	-1.6
CCN1CCN(C(=O)c2c(-c3ccccc3)noc2C)CC1	0.84	1.3
O=S(=O)(CC12C3C4C5C1C2C(Br)(C43)C51OCCO1)c1ccccc1 (stereo not given)	0.2	0.23
Cc1ccc(C)c(S(=O)(=O)Nc2ccccc2C(=O)Nc2cc(C)on2)c1	0.62	-0.81
C=C1CC(C(=O)N/N=C/c2ccc(O)cc2)C1	0.07	1.9
Cc1ccc(Nc2ccc(C(N)=O)cc2[N+](=O)[O-])cc1C	0.01	0.58
O=C(NCc1ccncc1)c1cccc(F)c1	1.3	-0.67
COC(=O)C1=NNC2(c3ccc(C)cc3)C(=O)N(c3ccc(C)cc3)C(=O)C12 (stereo not given)	0.51	0.24
NS(=O)(=O)c1ccc(N/N=C/c2ccc(C(=O)O)cc2)c([N+](=O)[O-])c1	0.16	-0.94
O=C(Nc1ccc(Br)cc1)c1ccco1	2.5	0.74
C/C(=N\S(=O)(=O)c1ccc(C)cc1)N(C)C	1.2	-1.6
Cc1ccc(-c2nc(CSCC(=O)N3CCN(C(=O)c4ccco4)CC3)c(C)o2)cc1	0.16	1.2

Compound profiles (already shown). Screens in order: KCNQ2 pot, KCNQ2 pot baseline
Cc1cc(C)n(CC(=O)N2N=C(C(F)F)CC2(O)C(F)F)n1 (stereo not given) as listed: 1.6, -1.6
COC(=O)C1=NNC2(c3ccc(C)cc3)C(=O)N(c3ccc(C)cc3)C(=O)C12 (stereo not given) as listed: 0.51, 0.24
C/C(=N\S(=O)(=O)c1ccc(C)cc1)N(C)C as listed: 1.2, -1.6
CCN1CCN(C(=O)c2c(-c3ccccc3)noc2C)CC1 as listed: 0.84, 1.3
O=C(NCc1ccncc1)c1cccc(F)c1 as listed: 1.3, -0.67

Additional structures.
Compound	KCNQ2 pot	KCNQ2 pot baseline
Cc1ccc(NC(=O)Cn2cccc2)c(C)c1	3.2	2.2
O=C(NCc1cccnc1)C(=O)Nc1nc(-c2ccccc2)cs1	1.4	1.2
Cc1c(C(=O)N2CCCc3ccccc32)oc2ccc(S(=O)(=O)N3CCOCC3)cc12	0.11	-0.27
O=C(NC1CCCCC1)C1CC(=O)N(c2ccc(Cl)cc2)C1 (stereo not given)	0.99	0.26
CCn1c(C(O)c2ccccc2)nc2ccccc21 (stereo not given)	0.26	0.81
CCc1cccc(NS(=O)(=O)c2c(C)n[nH]c2C)c1	1.6	-0.38
Cc1c(C)n(CCc2c[nH]c3ccccc23)ccc1=O	1.4	0.06
COc1ccc(Nc2nc3ccccc3s2)cc1	0.56	2.2
CCCC(C)NC(=O)CN1C(=O)NC2(CCc3ccccc32)C1=O (stereo not given)	1.2	0.97
COc1cccc2cc(C(=O)Nc3ccccc3Cl)/c(=N/NS(=O)(=O)c3ccccc3)oc12	2.6	0.59
NC(=O)C1(NC(=O)[C@@H]2CC3(CC(c4cccc(NC(=O)[C@@H]5CCC(=O)N5)c4)=NO3)CN2C(=O)Cc2ccc(C(F)(F)F)cc2)CC1 (stereo not given in full)	1	-1
O=C(c1ccc2ccccc2c1)N1CCN(c2ccccc2)CC1	-5.6	.
Cc1ccc(OCc2cc(C(=O)NCC(C)(C)N3CCOCC3)no2)cc1C	0.09	1.3
C=C(C)CN=c1scc(C)n1/N=C/c1ccco1	1.5	-1.4
CC(C1CCN(Cc2nc(C3CC3)no2)CC1)N1CCOCC1 (stereo not given)	0.48	0.14
Cc1ccc(C(=O)Nc2cccc(C(=O)NC3CCCCC3)c2)cc1	1.9	-1.6
O=C(CN(C(=O)CNS(=O)(=O)c1ccccc1)C1CCCC1)NCc1ccco1	1.7	-0.01
COc1ccc(C(OC(=O)c2cccs2)C(=O)NCC2CCCO2)cc1 (stereo not given)	0.58	-1.5
Cn1c(SCCN2CCCC2)nnc1C1CCN(S(=O)(=O)c2ccc(F)cc2)CC1	1.1	0.16
CC(C)CC(C(=O)O)N(Cc1ccccc1)Cc1ccccc1 (stereo not given)	1.9	-0.6
CC(=O)c1ccc(N2CCN(C(=O)C(=O)c3c(C)[nH]c4ccccc34)CC2)cc1	0.35	-0.21
O=C(O)/C=C/C(=O)NNC(=O)c1cccc(Br)c1	0.15	-0.06
O=C(CNC(=O)c1cccs1)NCCN1CCN(c2ccccc2F)CC1	0.22	-0.18
COc1ccc(S(=O)(=O)N2CCCC(N(C)CCc3ccccc3)C2)cc1OC (stereo not given)	0.38	0.72
CC(=O)Nc1ccc(C2Nc3cc(C)c(C)cc3NC3=C2C(=O)CC(C)(C)C3)cc1 (stereo not given)	0.38	0.46
C=CCCCCCCCCC(=O)NNC1=CC(=O)CC(C)(C)C1	4.2	0.51
COc1ccc(/C=N/N2C(=O)c3ccccc3C2=O)cc1	0.44	1.6
Clc1ccc(CSc2ncccn2)cc1	1.2	-0.85
COc1ccc(CN2C3CCC2CC(NC(=O)c2cc(OC)c(OC)c(OC)c2)C3)cc1 (stereo not given)	0.22	0.06
CCC(C)Nc1nc2c(c(=O)[nH]c(=O)n2C)n1CCCc1ccccc1 (stereo not given)	0.43	2.6
CN(c1ccccc1N(C)S(=O)(=O)c1ccccc1)S(=O)(=O)c1ccccc1	0.05	0.4
CS(=O)(=O)c1ccc2nnn(OCC(=O)Nc3cccc(C#N)c3)c2c1	0.01	-2.4
Cc1ccc(Nc2nnc(SCC(=O)NC(Cc3c[nH]c4ccccc34)C(=O)O)s2)cc1 (stereo not given)	0.12	2.6
Cn1c(SCc2cccc(F)c2)nnc1-c1cnccn1	0.09	-1.8
COc1cc(OC)cc(C(=O)N2CCCC(c3nc(-c4ccc(C)o4)no3)C2)c1 (stereo not given)	0.27	0.16
CC(C)(C)OC(=O)N1CCC[C@H]1C(=O)NCc1ccc(Cl)cc1Cl	0.04	-1.6
COc1ccc(CN=C2NC(=O)CC(C(=O)Nc3ccccc3C)S2)cc1 (stereo not given)	1.7	-0.17
COc1ccc(N2CC(C(=O)OCC(=O)c3ccc(C)cc3)CC2=O)cc1 (stereo not given)	0.49	-2
CCc1ccc(C(C)NC(=O)c2cccs2)cc1 (stereo not given)	5.3*	0*
Cn1c(=O)c2c(nc(N/N=C/c3cccs3)n2C)n(C)c1=O	1.2	1.3
COCCN(C(=O)c1cc2c(s1)CCCCC2)c1c(N)n(Cc2ccccc2)c(=O)[nH]c1=O	0.07	1.1
Cc1ccc(S(=O)(=O)N(C)CC(=O)NCCCn2ccnc2)cc1	0.22	0.33
CCC(C)(C)NC(=O)CN(Cc1ccc(F)cc1)C(=O)CCC(=O)Nc1ccccn1	0.05	-1.5
Cc1nn(CC(=O)N(C)Cc2ccccc2)c(=O)c2cccn12	0.71	0.62
COc1cccc(-c2nnc(NC(C)=O)o2)c1	0.28	-2.4
COc1cc(/C=C/C(=O)Nc2ccccc2C(F)(F)F)cc(OC)c1OC	0.85	-0.75
CCNC(=O)NC(=O)C(C)Oc1ccc(C(=O)OC)cc1 (stereo not given)	1.1	0.39
Cn1nnnc1SCC(=O)Nc1ccccc1[N+](=O)[O-]	1.3	0

An excerpt of these results, with values under each structure:
Sequence of screens: KCNQ2 pot | KCNQ2 pot baseline
Cn1nnnc1SCC(=O)Nc1ccccc1[N+](=O)[O-]
→ 1.3 | 0
COCCN(C(=O)c1cc2c(s1)CCCCC2)c1c(N)n(Cc2ccccc2)c(=O)[nH]c1=O
→ 0.07 | 1.1
COc1cc(/C=C/C(=O)Nc2ccccc2C(F)(F)F)cc(OC)c1OC
→ 0.85 | -0.75
COc1ccc(CN=C2NC(=O)CC(C(=O)Nc3ccccc3C)S2)cc1 (stereo not given)
→ 1.7 | -0.17
COc1cccc(-c2nnc(NC(C)=O)o2)c1
→ 0.28 | -2.4
Cc1nn(CC(=O)N(C)Cc2ccccc2)c(=O)c2cccn12
→ 0.71 | 0.62

(next part)
Compound	KCNQ2 pot	KCNQ2 pot baseline
O=[N+]([O-])c1cccc(S(=O)(=O)Nc2cccc(-c3ccc(N4CCCC4)nn3)c2)c1	0.97	1.1
Cc1cc(NC(=O)Nc2cccc(C(F)(F)F)c2)no1	2.5	-0.98
CCCN1CCN(S(=O)(=O)c2cc3c(cc2C)NC(=O)CO3)CC1	0.03	-0.1
Cn1c(CS(=O)Cc2c(Cl)cccc2Cl)nnc1SCc1c(Cl)cccc1Cl (stereo not given)	0.01	-1.6
CC(C)Cn1c(-c2ccco2)nc2c(c(=O)c3ccccc3n2C)c1=O	0.47	0.08
Cn1c(=NC(=O)COc2ccccc2)sc2ccccc21	0.07	0.03
O=C(Cc1ccc([N+](=O)[O-])cc1)N/N=C/c1ccccc1F	0.07	-0.45
CCOC(=O)C1(CCc2ccccc2)CCN(C(=O)C(C)n2cncn2)CC1 (stereo not given)	0.01	-1.1
O=C(OCc1cccc([N+](=O)[O-])c1)c1cccnc1Cl	0.22	2.7
COCCNC(=O)C(c1ccco1)N(C(=O)Cn1nnc2ccccc21)c1cc(C)ccc1C (stereo not given)	0.77	0.92
COc1ccccc1CNC(=O)CNC(=O)c1ccc(Br)o1	1.4	0.11
CC(Sc1nc(-c2ccccc2)cc(C(F)(F)F)n1)C(=O)N1CCOCC1 (stereo not given)	0.34	1.9
C=CCN1CCN(Cc2cnc(Cl)s2)CC1	0.74	0.93
CN(C)C(=O)C1CC(=O)OC12CCCCC2 (stereo not given)	1.4	-0.32
Cc1nc(NC(=O)COC(=O)C2=NNC(=O)CC2)c(Cl)cc1Cl	0.6	-1.5
Cc1ccc(Cn2nc(C)c(NC(=O)CCCn3nc(C)c([N+](=O)[O-])c3C)c2C)cc1	1.8	-0.29
CC(C)(C)NC(=O)C(=O)N/N=C/c1ccc(Br)cc1	2.1	-0.12
CCOc1ccc(NS(=O)(=O)c2c(C(=O)N3CCCCCC3)c(C)n(C)c2C)cc1	2.4	-0.42
CCC(C)(C)NC(=O)C(c1ccc(O)cc1)N(CCOC)C(=O)CCC(=O)Nc1nccs1 (stereo not given)	0.19	1.5
COCCn1c(=S)[nH]c2cc(C(=O)NCCc3ccccc3)ccc2c1=O	0.01	-1.7
CC(C)(C)NC(=O)CSc1nnc(Cc2ccc3c(c2)OCO3)n1C1CCCCC1	0.38	0.03
Cc1ccc(S(=O)(=O)N2CCN(C(=O)CSc3nc4ccccc4c(=O)[nH]3)CC2)c(C)c1	0.08	1.4
CCOc1ccccc1OCC(=O)Nc1nc2ccccc2[nH]1	0.56	1.2
Cn1c2ccccc2c2nnc(NN)nc21	0.99	-0.48
COCc1ccc(C(=O)N2CCCC(Nc3ccc(C(C)C)cc3)C2)o1 (stereo not given)	0.44	0.93
CN1C(=O)c2ccccc2C(C(=O)O)C1c1cn(C)c2ccccc12 (stereo not given)	0.49	2
CCNc1nc(NC(C)C)nc(OCC)n1	0.01	-0.02
CCOC(=O)c1oc2nc3c(cc2c1N)CCCC3	0.3	0.02
Cc1csc2nc(CN3CCN(CC(=O)N(C)C)CC3)cc(=O)n12	1.1	1.3
O=C(/C=C/c1ccc(OCCCF)cc1)Nc1ccnc(-c2ccncc2)n1	1	-0.76
CC(NC(=O)C12CC3CC(C1)CC(n1cncn1)(C3)C2)C12CC3CC(CC(C3)C1)C2 (stereo not given)	1.6	-1.8
CCN(CC)CCCN1C=C2C(=O)C(C)(OC(=O)CCC(=O)OC)C(=O)C=C2C=C1C1CC1 (stereo not given)	0.61	-0.47
COC(=O)[C@H](Cc1ccccc1)NC(=O)[C@@H]1C[C@H]1[C@@H](NC(=O)OCc1ccccc1)c1ccccc1	0.11	5.4
COCCOC(=O)C1=C(C)N(Cc2ccccc2)C(=O)NC1c1cccc(OC)c1OC (stereo not given)	0.18	1.2
O=C(CNc1ccccc1)NNC1=NCCC1	1.2	0.31
COc1ccccc1/C=C/C(=O)NNC(=O)c1cccs1	0.28	-0.06
CCOC(=O)COn1c(-c2cccc(Cl)c2)nc2ccc([N+](=O)[O-])cc21	2.9	0.43

A portion of the library; count on the stated rates, not on these rows.
